Sa growth 42C: S. aureus growth inhibition at 42 and 30 °C, primary screen, LtaS inhibitor project, RN4220, two temperatures; OD600, 20 h, 42 °C; stronger effect = lower value; relative growth, % (no concentration beside the values); 170,000 tested, 0.53% active;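 active = growth at 42 °C up to 50% and 20 or more points under that at 30 °C, or under 10% at both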;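 note: 300 nL library stock went into each well; scaled to the means of positive and negative controls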
GIV-Gai inh: inhibitors of GIV peptide binding to Galpha-i3, primary screen, biochemical, fluorescence polarization, FITC-GIV GBA peptide, rat Galphai3; 90 min; stronger effect = lower value; scaled: aluminum fluoride 0%, vehicle 100%; percent of control (FP), % (concentration not given with the values); 210,000 tested, 0.42% active; AID 1224905, 2016;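 active = replicate mean at 85% of control or lower, very high polarization wells dropped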;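 note: wells of about 15 µL received 100 nL stock; the first replicate is given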
Target sequence (P08753 whole entry, looked up): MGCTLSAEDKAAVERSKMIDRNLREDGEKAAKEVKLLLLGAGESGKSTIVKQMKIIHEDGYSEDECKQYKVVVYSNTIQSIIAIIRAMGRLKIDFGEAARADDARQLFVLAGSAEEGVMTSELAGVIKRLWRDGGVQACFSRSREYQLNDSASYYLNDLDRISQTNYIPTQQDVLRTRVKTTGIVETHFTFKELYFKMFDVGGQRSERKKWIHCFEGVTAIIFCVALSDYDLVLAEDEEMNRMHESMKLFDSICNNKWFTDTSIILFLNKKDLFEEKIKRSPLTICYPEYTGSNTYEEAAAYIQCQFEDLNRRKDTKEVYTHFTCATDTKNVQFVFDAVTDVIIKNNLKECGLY
HCMV UL50-53 inh: inhibitors of HCMV UL50-UL53 interaction, biochemical, HTRF; HCMV UL50-UL53 nuclear egress complex (human cytomegalovirus); 190,000 tested, 0.15% active; normalized percent inhibition; AID 1918969, 2023; inhibition, % (test concentration not listed);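 active = both replicates at 50% or more, plus weaker picks with an unusually low signal ratio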;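 note: stock transfer was 100 nL into about 20 µL; 0% = negative control wells and 100% = wells with untagged competitor protein; inactives centre near -12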
Sa growth 42C second temp: further read-out of Sa growth 42C, marked with its call; relative growth, %; measured here: growth at 30 °C;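 optical density after 20 h as mean of two plates; 100% = untreated growth and lower means inhibition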
Starred values were filed as active, the others as inactive; nt = not tested or not shown; & = joins results of further samples.

SMILES | GIV-Gai inh | Sa growth 42C | Sa growth 42C second temp | HCMV UL50-53 inh
COc1ccccc1N1CCN(C(=O)C2CCN(S(=O)(=O)c3cnc[nH]3)CC2)CC1 | 103 | 103 | 91 | -3
COc1cc(-c2[nH]nc3c2C(c2cc(OC)c(OC(C)=O)c(OC)c2)C(C#N)=C(N)O3)cc(OC)c1OC (stereo not given) | 103 | nt | nt | -14
Cc1ccc2nc(NCc3ccccc3)c3nncn3c2c1 | 103 | 112 | 88 | -20
CCCCN(C(=O)CC1CCCC1)c1c(N)n(Cc2ccccc2)c(=O)[nH]c1=O | nt | 89 | 86 | -21
CC(C)C1CCC(C(=O)N[C@@H](Cc2ccccc2)C(=O)O)CC1 (stereo not given in full) | nt | 91 | 88 | -49
O=C1c2cccc3cccc(c23)N1c1ccccc1 | 113 | 131 | 98 | -74
CCN1CCN(C(=O)CCNC(=O)N2CCSc3nc(C)cc(C)c32)CC1 | 104 | nt | nt | -2
O=C(O)C(Cc1ccccc1)Nc1ncnc2c1oc1ccccc12 (stereo not given) | 103 | 113 | 98 | nt
Cc1ccc(COC2CN(S(=O)(=O)c3ccc(C(C)C)cc3)C2)cc1 | 94 | nt | nt | -23
CCCCn1c(CCC(=O)OCC(=O)Nc2ccc(OC)cc2)nc2cc(S(=O)(=O)N3CCOCC3)ccc21 | nt | 84 | 96 | -7
COc1cccc(OCCSc2nc(C(C)C)cc(=O)[nH]2)c1 | 105 | 92 | 89 | 3
COC(=O)c1cc(/C=N/NC(N)=O)cn1C | 109 | 97 | 90 | -16
CCN(CC)c1ccc(C2C(C#N)=C(C)NC3=C2C(=O)CC(c2ccc(OC)cc2)C3)cc1 (stereo not given) | 104 | nt | nt | -13
Cc1ccc(CS(=O)Cc2ccc(C(=O)NCc3ccccc3Cl)o2)cc1 (stereo not given) | 106 | 105 | 94 | nt
CC1(C)CC(=O)C2=C(C1)c1c(ccc3ncccc13)NC2C1CC=CCC1 (stereo not given) | 103 | 95 | 53 | nt
CCCN(Cc1cccs1)C(=O)Nc1cc(C)cc(C)c1 | 107 | 78 | 97 | 6
CC(=O)Nc1ccc(OC(=O)c2ccco2)cc1 | 102 | 75 | 100 | -6
CN(Cc1ccc(C(F)(F)F)cc1)c1ccc(S(=O)(=O)N2CCCC2)cn1 | nt | 112 | 95 | 9
COc1ccc(-c2nc(C)c(CCNS(=O)(=O)c3cc(C)c(C)cc3C)s2)cc1 | 102 | 74 | 88 | nt
C/C(=N\S(=O)(=O)c1ccc(C)cc1)Nc1ccc(O)c(C)c1 | nt | 96 | 83 | 2

A portion from further up, as a working copy:
SMILES | GIV-Gai inh | Sa growth 42C | Sa growth 42C second temp | HCMV UL50-53 inh
CC(=O)Nc1ccc(OC(=O)c2ccco2)cc1 | 102 | 75 | 100 | -6
CN(Cc1ccc(C(F)(F)F)cc1)c1ccc(S(=O)(=O)N2CCCC2)cn1 | nt | 112 | 95 | 9
COc1ccc(-c2nc(C)c(CCNS(=O)(=O)c3cc(C)c(C)cc3C)s2)cc1 | 102 | 74 | 88 | nt
C/C(=N\S(=O)(=O)c1ccc(C)cc1)Nc1ccc(O)c(C)c1 | nt | 96 | 83 | 2

(more compounds)
SMILES | GIV-Gai inh | Sa growth 42C | Sa growth 42C second temp | HCMV UL50-53 inh
O=C(CN(CC(=O)N1CCOCC1)S(=O)(=O)c1ccc2ccccc2c1)N1CCOCC1 | nt | 111 | 92 | 13
Cc1noc2ncn(CC(=O)NCC3CCCO3)c(=O)c12 (stereo not given) | 100 | nt | nt | 4
O=C1COc2ccc(-c3cc(-c4ccccc4)c4c(n3)-c3ccccc3OC4)cc2N1 | 106 | 97 | 89 | -11
CC1CCCCN1CCCNC(=O)Cn1ncc2c3ccccc3n(Cc3ccc(F)cc3)c2c1=O (stereo not given) | 100 | 95 | 89 | 4
Nc1cccc(-c2csnn2)c1 | 100 | 87 | 83 | -21
COCCN1C(=O)/C(=C\c2ccc3c(c2)OCO3)SC1=S | nt | 122 | 88 | -17
Cc1ccc(C)n1/N=C1\NC(=O)CS1 | 113 | 101 | 57 | -20
CC(C)Cn1c(N2CCN(C(=O)c3sc4ccccc4c3Cl)CC2)nc2ccccc21 | 103 | 99 | 68 | 1
CCCc1nn2c(=O)cc(COC(=O)c3ccccc3NC(=O)COc3ccccc3F)nc2s1 | 98 | 91 | 89 | nt
COC(=O)c1ccc(CSc2ccc(Br)cc2)o1 | 104 | 125 | 98 | nt
Cc1cnc(C(=O)OCc2cc(Cl)c3c(c2)OCCO3)cn1 | nt | 92 | 90 | -15
CCCN1CCN(c2nnc(-n3cccc3CN3CCN(c4ccc(F)cc4)CC3)s2)CC1 | 106 | nt | nt | 0
C=C(C)CSc1nc2ccc(Br)cc2c(=O)n1CC(C)O (stereo not given) | nt | 71 | 68 | -13
CCCCNC(=O)c1cc(=O)[nH]c2ccccc12 | nt | 94 | 83 | -11
NS(=O)(=O)c1ccc(CCn2c(=S)[nH]c3ccccc3c2=O)cc1 | nt | 98 | 88 | -21
CCNC(=S)Nc1c(C)n(C)n(-c2ccccc2)c1=O | nt | 99 | 101 | 9
COc1ccc(-c2noc(CN(C(=O)Nc3cccc(C)c3)C(C)C)n2)cc1 | 101 | 118 | 93 | nt
CN(C)c1nc2ncnc(SCC(=O)Nc3ccc4c(c3)OCO4)c2s1 | 110 | nt | nt | -24
Clc1ccccc1OCCSc1nnc(-c2cccs2)o1 | 97 | 84 | 77 | -4
NCc1ccccc1-n1ccnc1 | 105 | 63 | 95 | 7

SMILES | GIV-Gai inh | Sa growth 42C | Sa growth 42C second temp | HCMV UL50-53 inh
CC1CN(S(=O)(=O)c2cc(C(=O)N(C)Cc3cccs3)ccc2Cl)CC(C)O1 (stereo not given) | nt | 109 | 99 | -10
COc1ccc(SCc2nc3ccccc3o2)cc1 | nt | 98 | 97 | -22
O=C1CCc2cc(S(=O)(=O)Nc3ccccc3)cc3c2N1CCC3 | 107 | 106 | 86 | -6
OCc1cn(-c2ccccc2)nc1-c1cccnc1 | nt | 100 | 72 | -4
O=C(NCc1ccc(Br)cc1)C1CCCN(c2ccnc(-c3ccccc3)n2)C1 (stereo not given) | 99 | nt | nt | 3
CCCc1cc2c(cc1N)OCO2 | 103 | 87 | 70 | 3
Cc1ccc(C(=O)COC(=O)C2CCC2)cc1 | nt | 87 | 91 | -4
CCCCN1C(=O)C(O)(c2nnc(-c3ccccc3)o2)c2ccccc21 (stereo not given) | nt | 82 | 86 | -20
CC(C)c1ccc(NC(=NCc2ccncc2)NC(=O)c2ccc(CN3CCOCC3)cc2)cc1 | 102 | nt | nt | 3
CC(C(=O)NC1CCCC1)n1c2ccccc2c2cnn(C)c(=O)c21 (stereo not given) | 98 | 102 | 88 | nt
Cc1cc(C)nc(SCC(=O)OCN2C(=O)c3ccccc3C2=O)n1 | 99 | 83 | 99 | -37
CC(C)CCNC(=O)c1cccc2c1SCCC2=O | 101 | 89 | 85 | nt
Cc1cc(C(=O)NN)nn1C | 102 | 92 | 85 | -13
Cc1c2c(=O)n(-c3ccccc3)[nH]c2cc(=O)n1Cc1ccccc1 | 104 | 142 | 85 | -6
CCc1ccc(NC(=O)CSc2nnc3ccc(C(=O)Nc4ccc(C)cc4)cn23)cc1 | 97 | nt | nt | -12
CCc1ccc(NC(=O)NC(C)(C)C)cc1 | 103 | 112 | 90 | -10
COc1ccc(S(=O)(=O)NCC(c2ccc(N(C)C)cc2)N2CCc3ccccc32)cc1 (stereo not given) | 95 | 104 | 95 | nt
CCOc1cc(/C=N/O)ccc1OCc1cccc(F)c1 | 100 | 102 | 88 | -11
CCc1ccc(NC(=O)Cn2c(=O)n(Cc3ccco3)c(=O)c3cccnc32)cc1 | 112 | 89 | 94 | 0
Cn1c(=O)n(-c2ccc3c(c2)OCO3)c2nc(-c3ccc(F)cc3)nc(C(N)=O)c21 | 99 | nt | nt | -34

SMILES | GIV-Gai inh | Sa growth 42C | Sa growth 42C second temp | HCMV UL50-53 inh
Clc1ccccc1/C=N/c1c(-c2ccco2)nc2ccccn12 | 103 | 109 | 84 | nt
O=C(O)C1CC=CCC1C(=O)N1CC=C(c2ccccc2)CC1 (stereo not given) | 105 | 91 | 83 | -33
CCNC(=O)CC1C(=O)N(c2ccc(C)cc2)C(=O)N1CCC(C)C (stereo not given) | 98 | 104 | 93 | -17
CCOC(=O)C1=C(C)N=c2s/c(=C\c3cc([N+](=O)[O-])ccc3N3CCOCC3)c(=O)n2C1c1ccc(OCC)cc1 (stereo not given) | 103 | nt | nt | -17
CCc1nc(NCCc2ccccc2)c(C#N)c2c1CCCC2 | 103 | 78 | 70 | -16
O=C(Nc1ccccc1)c1cccnc1NCCc1ccccc1 | 102 | 114 | 95 | 3
COc1ccc(NC(=O)c2nc(-c3ccc(C)cc3)n3c2CCCCC3)cc1 | 103 | 97 | 88 | nt
CC(C)c1ccc(S(=O)(=O)N2CCN(CCn3c(C(F)(F)F)nc4cccnc43)CC2)cc1 | 104 | nt | nt | -22
CCn1c(SC/C(O)=C(\C#N)C(=O)NCc2ccccc2)nnc1-c1cccs1 | nt | 102 | 94 | -28
Cn1c(=O)n(C)c2cc(N3CCOCC3)c(NS(=O)(=O)c3ccc(Cl)cc3)cc21 | 104&103 | 94 | 84 | -2&-28
Cc1csc2ncc(C(=O)NC(C)(C)C)c(=O)n12 | 103 | nt | nt | -20
CN(Cc1ccccc1)C(=O)Cc1ccccc1 | nt | 94 | 96 | -6
O=C(N/N=C/c1cccnc1)c1ccccc1 | 102 | 98 | 91 | -67
CC(C)(Sc1ccc(CCN(CCCCC2CCCCC2)C(=O)NC2CCCCC2)cc1)C(=O)O | 99 | nt | nt | -182&-21&-21&-50
CC(C)N(Cc1ccccc1)C(=O)CN1C(=O)CSc2ccc(S(=O)(=O)N3CCCC3)cc21 | 104 | 114 | 91 | nt
O=C1CSC(=O)N1CCN1C(=O)S/C(=C\c2ccccc2O)C1=O | 122 | 99 | 116 | -57
COc1ccc(-c2nn(-c3ccccc3)cc2CSC(=N)N)cc1OC | 100 | 38 | 33 | -11
CC(c1ccco1)N(C(=O)c1cccc(S(=O)(=O)N(C)C)c1)c1ccccn1 (stereo not given) | nt | 86 | 91 | -15
Cc1c(F)cccc1NS(=O)(=O)c1cc2c3c(c1)c(C)cc(=O)n3CCC2 | 97 | 141 | 71 | 0
O=c1c2cc(-c3ccc4c(c3)OCO4)nn2ccn1Cc1nc(-c2ccc(Br)cc2)no1 | 108 | nt | nt | -16

Next section; the last 3 above are carried over.
SMILES | GIV-Gai inh | Sa growth 42C | Sa growth 42C second temp | HCMV UL50-53 inh
CC(c1ccco1)N(C(=O)c1cccc(S(=O)(=O)N(C)C)c1)c1ccccn1 (stereo not given) | nt | 86 | 91 | -15
Cc1c(F)cccc1NS(=O)(=O)c1cc2c3c(c1)c(C)cc(=O)n3CCC2 | 97 | 141 | 71 | 0
O=c1c2cc(-c3ccc4c(c3)OCO4)nn2ccn1Cc1nc(-c2ccc(Br)cc2)no1 | 108 | nt | nt | -16
COC(=O)c1ccccc1NC(=O)c1cc[n+]([O-])cc1 | 100 | 85 | 75 | -52
COC(=O)c1ccc(C(=O)Nc2ccc3nc(-c4ccccn4)[nH]c3c2)cc1 | 97 | 99 | 103 | nt
Oc1ccc(NCc2ccc(OCc3ccccc3)cc2)cc1 | 95 | 85 | 80 | 15
COC(=O)c1cc(S(=O)(=O)N2CCCC2C(=O)Nc2cc(OC)cc(OC)c2)cn1C (stereo not given) | 100 | nt | nt | -5
CCOC(=O)C1=C(C)N=c2s/c(=C\c3ccc(SC)cc3)c(=O)n2C1c1cc(OC)ccc1OC (stereo not given) | 108 | nt | nt | 3
Cc1c(C(=O)N2CCN(S(=O)(=O)/C=C/c3ccccc3)CC2)oc2ccc(Cl)cc12 | nt | 113 | 85 | -30
C/C(=C\c1nsc(Nc2ccccc2)n1)NCc1ccccc1 | 101 | 114 | 105 | 1
CCCN(C(=O)c1cc2c(s1)-c1ccccc1SC2)c1ccccc1F | 104 | 83 | 83 | 2
O=C(Nc1ccc(NC(=O)C2CCCCC2)nc1)C1CC1 | 109 | 114 | 85 | -5
CC(=O)N/N=C/c1cn(-c2ccccc2)nc1-c1cccs1 | nt | 81 | 85 | -32
Cc1cccc(CS(=O)(=O)c2ncc(Cl)c(C(=O)Nc3nc4ccc(F)cc4s3)n2)c1 | 100 | 104 | 86 | -27
Cc1ccccc1CNCc1c(C(=O)O)c(C)n(Cc2ccc(F)cc2Cl)c1C | 102 | 103 | 94 | -18
CCOC(=O)CSc1nnc(CNC(=O)c2cccs2)n1Cc1ccccc1 | 104 | 111 | 83 | -4
CC1=C(C(=O)Nc2nc3ccc(Br)cc3s2)C(c2cccnc2)C2=C(CC(C)(C)CC2=O)N1 (stereo not given) | 98 | nt | nt | -12
COc1cc2ccc(=O)oc2c(OC(C)=O)c1OC(C)=O | nt | 58 | 42 | -65
O=C(Cn1nnc(-c2cccc(C(F)(F)F)c2)n1)N(C1CCCC1)C1CCS(=O)(=O)C1 (stereo not given) | nt | 84 | 84 | -25
Cc1ccc(NC(=O)N(Cc2cn(C)c3ccccc23)C2CCCCC2)cc1C | 103 | 109 | 99 | -11
